Source: PubChem (several laboratories)
Hsc70 = Hsc70 inhibitors, probe displacement, primary screen, biochemical, fluorescence polarization (AID 568). Heat shock cognate 71 kDa protein (Homo sapiens). Hsc70 fluorescence polarization, probe displacement; higher % means a stronger effect; strong numbers were not always called active. displacement, % at 20 µM, or IC50 in µM where a hit was titrated. 83,000 tested, under 10 active;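 active = displacement above 50% without optical interference and an IC50 on retest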;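 also: ATPase domain with a fluorescein-tagged ATP probe; 0% = vehicle and 100% = excess ADP; read after one hour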
WNV NS2B-NS3 inh = inhibitors of WNV NS2B-NS3 protease, primary screen, biochemical, fluorogenic substrate; fluorogenic substrate Ex360/Em465; hits give low values; z-score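 (tested at a level between 10 and 100 µM)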; 0.18% of 65,000 active; AID 577, 2007;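 active = z-score at -3 or under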;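 also: score is relative to mean and spread of the compound wells of a plate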
Target sequence (P06935 1371-1501 limits assumed): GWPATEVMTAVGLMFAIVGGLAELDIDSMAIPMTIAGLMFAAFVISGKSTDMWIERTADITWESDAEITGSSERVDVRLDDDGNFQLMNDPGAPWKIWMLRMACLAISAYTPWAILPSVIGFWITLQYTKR
Target sequence (P06935 1502-1679 limits assumed): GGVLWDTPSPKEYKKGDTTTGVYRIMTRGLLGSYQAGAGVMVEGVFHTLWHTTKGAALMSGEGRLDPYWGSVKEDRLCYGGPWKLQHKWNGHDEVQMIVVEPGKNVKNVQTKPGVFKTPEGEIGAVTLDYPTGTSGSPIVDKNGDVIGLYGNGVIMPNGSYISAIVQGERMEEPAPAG
MT1-MMP reporter = inhibitors of MT1-MMP promoter transcription, cell-based, luciferase reporter, luminescence (AID 618); MT1-MMP promoter luciferase reporter cells, luminescence; 0.62% of 87,000 active; calls from a first round at 10 µM; hits with a dose series show EC50 in µM;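 active = over half of the reporter light lost at 10 µM or EC50 under 50 µM; inactive = the rest and hits that failed the dose series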;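 also: actives suppress MT1-MMP promoter-driven transcription so potencies describe inhibitors; HT1080 fibrosarcoma cells; overnight exposure; toxic or luciferase-blocking compounds were not removed from the actives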
* = called active by the depositor; i = inactive; / = not tested or not shown; + = active, no number. Some of the compounds tested; count on the stated rates, not on these rows.

cpd | Molecule | Hsc70 | WNV NS2B-NS3 inh | MT1-MMP reporter
1 | CCOc1ccc(OCC)c(NC(=O)C2CCCN2S(=O)(=O)c2cccc3cccnc23)c1 (stereo not given) | -2.2% | -0.21 | i
2 | CC(C)(C)C1=C(C#N)C(c2ccc3c(c2)OCO3)C(C#N)=C(N)O1 (stereo not given) | -1.3% | 0.55 | i
3 | CCn1c2ccccc2c2nnc(SCc3ccc(C(=O)OC)o3)nc21 | -6.0% | -0.54 | i
4 | CN=C1SC(CC(=O)Nc2ccc(N3CCOCC3)cc2)C(=O)N1C (stereo not given) | 4.1% | -1.09 | i
5 | O=C(CCC(=O)c1cccs1)Nc1ccc(F)c(F)c1F | -0.4% | / | i
6 | COc1cc(NC(=O)c2ccc(COCC(F)(F)F)o2)cc(OC)c1OC | 5.9% | -0.3 | i
7 | CC(NC(=O)c1cn(C)c2ccc(S(=O)(=O)N3CCCC3)cc2c1=O)c1ccc2c(c1)OCCO2 (stereo not given) | -6.0% | -1.05 | i
8 | O=C(NC1(C(F)(F)F)NC(=O)N(Cc2cccnc2)C1=O)c1cccs1 (stereo not given) | 0.9% | 0.89 | i
9 | CC(=O)Nc1ccc(OCC(O)CN2CCN(Cc3ccccc3)CC2)cc1 (stereo not given) | 1.3% | -0.04 | i
10 | COc1ccc(-c2nnc(-c3ccc(N(C)C)cc3)o2)cc1 | -3.8% | -0.43 | i
11 | CC(=O)c1cccc(NC(=O)NCCS(C)=O)c1 (stereo not given) | 0.2% | 0.16 | i
12 | Cc1ccc(C(=O)Nc2ccc3c(c2)ncn3C)cc1 | 0.3% | 0.27 | i
13 | COc1ccc2nc(SCC(=O)Nc3ccc4c(c3)OCCO4)[nH]c2c1 | 2.9% | -1.21 | i
14 | Cc1ccc(-c2cc(C(=O)N3CCCC3)no2)cc1 | 3.8% | -0.26 | +
15 | COC(=O)c1sccc1NC(=O)c1ccncc1 | 0.8% | -0.82 | i
16 | Cc1ccc(S(=O)(=O)N[C@H](C(=O)OCn2nnc3ccccc3c2=O)C(C)C)cc1 | 3.4% | / | i
17 | Cc1ccc2cc(CN(Cc3cccs3)Cc3nnnn3CC3CCCO3)c(=O)[nH]c2c1 (stereo not given) | -0.2% | 0.17 | i
18 | Cc1ccc(SCC(=O)Nc2cccnc2)cc1 | 8.8% | / | i
19 | O=C(CSc1n[nH]c(-c2ccc(S(=O)(=O)NC3CCCCC3)cc2)n1)N1CCCC1 | 2.1% | 0.32 | i
20 | Nc1nc(N)nc(-c2ccccn2)n1 | -0.3% | -0.96 | i
21 | COc1ccc2c(c1OC)C(=O)N1c3ccccc3SC21 (stereo not given) | 1.7% | -1.91 | i
22 | O=C(c1ccc(CN2CCOCC2)cc1)N1CCN(Cc2ccccc2)CC1 | -7.4% | 0.02 | i
23 | COc1ccccc1CNC(=O)c1c(O)c2cc(OC)c(OC)cc2[nH]c1=O | 0.9% | -0.05 | i
24 | COC(=O)CCN1CCC(C(N)=O)CC1 | -1.3% | -0.2 | i
25 | O=C1NC(=O)C2(CCC(C(=O)O)C2)N1 (stereo not given) | 2.1% | 0.09 | i
26 | CCC(Sc1nc(C)cc(=O)[nH]1)C(=O)Nc1sc2c(c1C#N)CCCC2 (stereo not given) | -2.6% | -0.06 | i
27 | O=C(CSc1nnc(Cc2ccccc2)n1-c1ccc(Cl)cc1)N1CCOCC1 | 2.1% | 1.03 | i
28 | COc1ccc(C(=O)Nc2ccc(S(=O)(=O)NCc3ccco3)cc2)cc1OC | -3.1% | 0.6 | i
29 | O=C(OC(C(=O)NC1CCCCC1)c1ccccn1)c1cccs1 (stereo not given) | -4.7% | / | i
30 | CCOC(=O)c1ccc(NC(=O)CCOc2ccc(C)cc2)cc1 | -1.5% | / | i
31 | Cc1cccc(CSC2=NCCN2C(=O)C2CC2)c1 | -3.2% | 0.04 | i
32 | CSc1nc(C)cc(SCCO)n1 | -0.8% | -0.96 | i
33 | N=C1C(c2nc3ccccc3[nH]2)=C(O)CN1c1ccc(F)cc1 | -1.3% | / | i
34 | COc1ccc(OC)c(CNC(=O)C2CCN(S(=O)(=O)N3CCCC3)CC2)c1 | -2.0% | -1.22 | i
35 | O=C(O)CCNC(=O)c1ccccc1 | -4.8% | 0.54 | i
36 | CC1CCN(S(=O)(=O)c2ccc(S(=O)(=O)NCC3COCCO3)cc2)CC1 (stereo not given) | -10.0% | 0.57 | i
37 | Nc1nnc(CCC2CCCCC2)s1 | -5.2% | -0.29 | i
38 | COc1cccc(N(CC(=O)NC2CCCC2)C(=O)Cn2nnc(-c3ccc(C)cc3)n2)c1 | -1.1% | -1.21 | i
39 | CCC(C(=O)NCCN1CCN(C)CC1)n1c(C)c2cnn(-c3ccccc3)c(=O)c2c1C (stereo not given) | 1.1% | 0.98 | i
40 | CCOc1ccc(NC(=O)C2CC=CCC2C(=O)O)cc1 (stereo not given) | -1.1% | -0.8 | i
41 | CCOC(=O)N1CCN(C(=O)COc2ccccc2OC)CC1 | 3.9% | -0.61 | i
42 | COc1ccc(-n2c(Cc3cccn3C)nnc2SCC(=O)Nc2cccc(C)c2C)cc1 | 4.8% | -0.27 | i
43 | O=c1c2cc(N3CCOCC3)ccc2[nH]c(=S)n1CCCN1CCCC1 | 0.3% | 0.44 | i
44 | CCOC(=O)c1[nH]c(CSc2nnc(-c3ccc(OC)cc3)o2)c(C(=O)OCC)c1C | -56.6% | 0.42 | i
45 | O=C(O)c1ccc(CSc2nnc(Cc3ccccc3)o2)cc1 | -1.3% | / | i
46 | CN(C)S(=O)(=O)c1ccc(C(=O)Oc2cc(=O)[nH]c3ccccc23)cc1 | 11.3% | 0.61 | i
47 | CCc1c(O)nc(SCc2ccccc2)n(C(C)CC)c1=O (stereo not given) | -0.3% | -0.23 | i
48 | CCN(CC)C(NC(=O)c1ccccc1)C(=O)c1ccccc1 (stereo not given) | -3.9% | -1.08 | i
49 | CCOc1ccc(-c2nnc(N)o2)cc1 | 4.1% | 1.71 | i
50 | CCN1CCN(C(=O)c2cc3c(=O)n(C)c4ccccc4c3n2C)CC1 | 0.7% | 0.32 | i

(continued)
cpd | Molecule | Hsc70 | WNV NS2B-NS3 inh | MT1-MMP reporter
51 | N#Cc1cn(CC(=O)NCCc2c[nH]c3ccccc23)c2ccccc12 | -6.4% | 0.00251 | i
52 | CCCCc1c(C)nn(-c2nnc3c4ccccc4n(C)c3n2)c1C | 2.9% | 0.45 | i
53 | CCN(CC)S(=O)(=O)c1ccc(S(=O)(=O)N(CC(=O)Nc2ccccc2)Cc2ccco2)cc1 | -2.7% | / | i
54 | OC(CNCC1CCCO1)Cn1c2ccc(Cl)cc2c2cc(Cl)ccc21 (stereo not given) | -5.0% | / | i
55 | Cc1cc(C)nc(Nc2n[nH]c(-c3ccc(N)cc3)n2)n1 | -6.1% | / | i
56 | Cc1cc(C(C)(C)C)cc(S(=O)(=O)NCC(=O)O)c1C | -1.3% | -0.55 | i
57 | CCn1c2ccccc2c2nnc(SCc3ccccc3)nc21 | 1.0% | -0.64 | i
58 | COC(=O)CSc1nc2c(c(=O)[nH]c(=O)n2C)n1CCC(C)C | 3.2% | -0.18 | i
59 | CN1CCN(S(=O)(=O)c2ccc(C(=O)Nc3ccccc3)cc2)CC1 | 1.3% | / | i
60 | CCOCCCNC(=O)c1ccc(OC)cc1 | 0.4% | -0.42 | i
61 | O=C(O)c1ccc(CSc2nnc(-c3ccncc3)n2CC2CCCO2)cc1 (stereo not given) | -2.1% | -0.38 | i
62 | Cc1ccc(Oc2nc3ccccc3n3c(C)nnc23)cc1 | -3.6% | 0.33 | i
63 | CCC(C)(C)NC(=O)C(c1ccc(F)cc1)N(Cc1ccco1)C(=O)c1cnccn1 (stereo not given) | -6.2% | -0.24 | i
64 | O=C(CSC1=NCCS1)Nc1ccccc1F | 5.7% | 1.13 | i
65 | CCOC(=O)N1CCN(C/C(C)=C/c2ccccc2)CC1 | -2.9% | -0.88 | i
66 | O=C(COC(=O)C1CCCN1C(=O)c1cccs1)Nc1ccc2c(c1)OCO2 (stereo not given) | 0.9% | -0.37 | i
67 | CCOc1ccc(-c2nnc3ccc(SCC(=O)NCc4ccco4)nn23)cc1 | -2.9% | 1.03 | i
68 | O=C(NCCCCCCNC(=O)C1CCCC1)C1CCCC1 | 5.2% | / | i
69 | Cc1nn(C)c(C)c1C(=O)NN | 3.5% | / | i
70 | Fc1ccc(C(c2nnnn2C2CCCC2)N2CCN(Cc3ccncc3)CC2)cc1 (stereo not given) | 5.5% | -0.78 | i
71 | Cc1ccc(C2(CC(=O)N3CCCC3)CCOC(C(C)C)C2)cc1 (stereo not given) | 2.5% | / | i
72 | CC(C)CC1C(C#N)=C(N)SC(N)=C1C#N | -45.5% | -0.52 | i
73 | CCSc1nnc(-c2ccc(Cl)cc2Cl)o1 | -1.4% | -1.35 | i
74 | CCOC(=O)N1CCN(C(=O)c2cc3c(ccc4ccccc43)oc2=O)CC1 | 3.1% | -0.61 | i
75 | CC1CCC(NC(=O)CN2CCCN(Cc3ccc(F)cc3Cl)C2=O)CC1 (stereo not given) | 4.3% | 0.21 | i
76 | COc1ccc(CCNC(=O)CCn2c(=O)oc3ccccc32)cc1 | 3.2% | 0.3 | i
77 | CC(=O)Nn1c(C)nnc1-n1nc(C)cc1C | 0.4% | -0.28 | i
78 | CSc1nnc2c(n1)OC(c1ccc(C(=O)O)cc1)N(C(C)=O)c1ccccc1-2 (stereo not given) | -0.3% | 0.48 | i
79 | CCOC(=O)C1CCN(C(C(=O)NC2CCCCC2)c2ccc(OC)cc2)CC1 (stereo not given) | 5.0% | 0.73 | i
80 | COC(=O)CSc1nnc(-c2ccncc2)o1 | -7.7% | -0.09 | i
81 | Cc1cccc(NC2=NCC(=O)N2CCc2ccccc2)c1 | -6.9% | / | i
82 | Cc1cccc(-n2c(=O)[nH]c3c(C(N)=O)nc(C(C)C)nc32)c1 | -2.5% | -0.63 | i
83 | COC(=O)C1=C(C)N(CCc2ccccc2)C(=O)C1 | -2.3% | 0.72 | i
84 | CCN(C(=O)c1cc2cccc(OC)c2oc1=O)C1CCCCC1 | 1.3% | / | i
85 | O=C1CN(CC(=O)N2CCCCC2)c2ccccc2O1 | -4.0% | 2.74 | i
86 | Clc1nc2sccn2c1/C=N/n1cnc2ccccc21 | 2.8% | -0.01 | i
87 | CCN(CC)S(=O)(=O)c1ccc(NC(=O)C(C)N(c2ccc(OC)cc2)S(C)(=O)=O)cc1 (stereo not given) | 2.4% | / | i
88 | O=C(O)CCC(=O)N1CCc2cc(S(=O)(=O)N3CCC(Cc4ccccc4)CC3)ccc21 | -4.1% | -1.46 | i
89 | Cc1cccc(NC2=Nc3ccccc3N3C2=Nc2c(c(C)nn2-c2ccccc2)C3c2ccc(O)c(O)c2)c1 (stereo not given) | -1.3% | / | i
90 | Nc1nnnn1/N=C/c1ccco1 | -0.3% | 0.26 | i
91 | Cc1ccc(NC(=O)CSc2nnc(CCCCCNC(=O)OC(C)(C)C)o2)c(C)c1 | 5.2% | -0.06 | i
92 | O=C(NC1CC1)c1ccc(S(=O)(=O)NCC2CCCCC2)cc1 | 5.2% | -0.68 | i
93 | O=C1CSC(c2ccco2)N1 (stereo not given) | -5.6% | 1.09 | i
94 | CCc1c(C)c2cc(Cl)c(O)c(CN(CC)CC)c2oc1=O | -1.0% | 12.6 | i
95 | CCCCN(CCCNC(=O)CN1C(=O)COc2ccccc21)c1ccccc1 | 2.2% | 0.04 | i
96 | COc1ccc(C)cc1NC(=O)CSc1nnc(CC(=O)Nc2cccc(C(F)(F)F)c2)n1C | 2.2% | / | i
97 | CCc1c(C)[nH]n(CCC#N)c1=O | 2.5% | -0.12 | i
98 | CC(=O)CSc1nsc(SCC(C)=O)c1C#N | 0.7% | / | i
99 | Cc1ccc(N2CC(C(=O)NC3=NCCS3)CC2=O)cc1C (stereo not given) | -4.9% | -1.34 | i
100 | CCn1c(C(=O)NCc2cccnc2)cc2sc(Cl)cc21 | 4.7% | 0.18 | i

The listing continues.
cpd | Molecule | Hsc70 | WNV NS2B-NS3 inh | MT1-MMP reporter
101 | C=CCOc1c(Br)cc(CNn2nnnc2N)cc1OCC | -2.8% | -1 | i
102 | CN1CCN(C(=O)c2ccccc2N(Cc2ccccc2)S(C)(=O)=O)CC1 | 3.8% | 0.72 | i
103 | CCN(CC)CCNC(=O)c1ccc2c(=O)n(CCc3ccccc3)c(=O)[nH]c2c1 | 0.9% | 0.91 | i
104 | COc1ccccc1C1/C(=C(/O)c2ccccc2)C(=O)C(=O)N1CCO (stereo not given) | -2.3% | -0.58 | i
105 | Clc1ccc2nc(N3CCN(c4ccccc4)CC3)sc2c1 | -0.3% | 0.54 | i
106 | O=C(Nc1ccc(Br)cc1Cl)c1cnccn1 | -9.2% | -0.75 | i
107 | COc1cc(C2C3=C(CC(C)(C)CC3=O)N(C)C(=O)N2C)cc(OC)c1OC (stereo not given) | 2.7% | -0.69 | i
108 | O=C1Nc2c(c(=O)[nH]c(=O)n2-c2ccccc2)C(C(F)(F)F)(C(F)(F)F)N1 | -3.6% | / | i
